# TRPML1 agonist: qHTS for Agonists of the Human Mucolipin Transient Receptor Potential 1 (TRPML1); Mucolipin-1 (Homo sapiens), Q9GZU1; TRPML1-expressing cells, Ca2+ dye fluorescence, FDSS; host cell line not named in the record; reference of the full effect not given here; activation, % (concentration not given with the values); 410,000 compounds, 0.12% hits; AID 624414, 2012; in the data active = activation above about 50%; inconclusive = about 30% to 50%; inactive = below about 30%; further: 0% is about no effect; the text of the record puts the active cut at 80%
#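 Agonist activity was taken from a 110 s kinetic Ca2+ dye read on the FDSS after pinning compounds onto TRPML1-DL cells. The cells were seeded at 1,500/well with Tet inducer, incubated about 16 h, then dye-loaded at room temperature.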
# Sfp inh: qHTS Assay for Inhibitors of Bacillus subtilis Sfp phosphopantetheinyl transferase (PPTase) | Biochemical Sfp PPTase activity, qHTS | Potency, µM, inactives show max response, negative = inhibition, hits mostly inhibitors | 310,000 compounds, 3.5% hits; active means well fitted inhibition curve with a large enough effect; inconclusive means small, poorly fitted or top-dose-only effect, or another doubt; inactive means no such curve, though single readings can be large or run the other way;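 further: the enzyme is Sfp with the accession as filed and its product quenches rhodamine fluorescence; potency means the concentration at half of the fitted maximal effect; 0% = enzyme reaction without inhibitor and -100% = no enzyme wells; top concentration of the series not given in the record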
#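 Reaction rates are the 30-min fluorescence difference (ex 525, em 598 nm) in wells containing 15 nM Sfp, 5 uM rhodamine-CoA and 12.5 uM BHQ-2-YbbR at pH 7.6 with 10 mM MgCl2.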
# Menin-MLL FL inh: qHTS Assay for Inhibitors Targeting the Menin-MLL Interaction in MLL Related Leukemias: Competition With Fluorescein Labeled MLL-derived Peptide; Fluorescence polarization, fluorescein-MLL peptide displacement from menin; FP activity change, % at 61.4 µM; 290,000 tested, under 10 active; AID 1766, 2009; inconclusive = falling polarisation curve, or a change in total fluorescence; inactive = total fluorescence flat and polarisation flat or rising; no compound was filed as active; the % refers to the polarisation; negative = inhibition;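 further: % of control where 0% means no effect; inhibitors lower the polarisation; unlabelled MLL peptide was the positive control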
# TRPV1 PAM: HTS Assay for Compounds that Act as Potentiators of the Vanilloid Receptor 1; Transient receptor potential cation channel subfamily V member 1 (Homo sapiens), Q8NER1; AID 540277, 2011; TRPV1-expressing cells, Fluo-8 calcium influx, capsaicin EC20 potentiation; host cell line not named in the record; control for the full effect not named in the record; potentiation, % at 8.33 µM; 320,000 compounds, 0.02% hits; active means potentiation above 80%; inconclusive means 30% to 80%; inactive means below 30%; further: 0% is about no effect
# Target sequence (Q8NER1 whole entry, looked up): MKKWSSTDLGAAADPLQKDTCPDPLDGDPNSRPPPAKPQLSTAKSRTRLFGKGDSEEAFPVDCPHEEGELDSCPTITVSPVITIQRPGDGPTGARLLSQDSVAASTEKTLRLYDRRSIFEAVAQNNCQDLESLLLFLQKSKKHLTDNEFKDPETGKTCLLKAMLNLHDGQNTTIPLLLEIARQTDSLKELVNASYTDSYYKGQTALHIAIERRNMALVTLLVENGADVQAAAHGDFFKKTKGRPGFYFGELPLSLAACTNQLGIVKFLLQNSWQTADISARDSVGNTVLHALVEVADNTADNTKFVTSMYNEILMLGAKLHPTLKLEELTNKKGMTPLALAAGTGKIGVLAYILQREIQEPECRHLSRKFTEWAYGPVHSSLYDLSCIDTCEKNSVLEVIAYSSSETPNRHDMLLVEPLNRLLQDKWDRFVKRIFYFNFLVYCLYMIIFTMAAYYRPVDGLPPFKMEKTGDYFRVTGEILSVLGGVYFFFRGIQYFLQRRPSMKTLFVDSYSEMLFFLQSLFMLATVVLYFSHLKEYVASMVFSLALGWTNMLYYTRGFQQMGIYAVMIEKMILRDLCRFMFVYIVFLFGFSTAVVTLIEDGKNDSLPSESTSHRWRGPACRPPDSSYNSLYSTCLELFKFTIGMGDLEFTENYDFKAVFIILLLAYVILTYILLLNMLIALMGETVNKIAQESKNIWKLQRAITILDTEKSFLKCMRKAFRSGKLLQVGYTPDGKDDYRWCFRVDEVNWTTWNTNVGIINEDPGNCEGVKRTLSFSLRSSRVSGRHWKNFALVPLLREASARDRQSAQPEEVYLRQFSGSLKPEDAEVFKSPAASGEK
#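 Fluo-8 calcium influx in TRPV1-expressing cells, kinetic read (ex 480/em 520 nm). Compound added and read 3 min for agonist activity, followed by capsaicin at EC20 final and 2 min further read for enhancement.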
# TRPML1 blocker: qHTS for Inhibitors of the Human Mucolipin Transient Receptor Potential 1 (TRPML1); TRPML1-inducible cells, Ca2+ dye fluorescence, FDSS; hits give low values; inhibition of EC80 agonist-evoked calcium signal; 390,000 compounds, 0.02% hits; AID 624415, 2012; Mucolipin-1 (Homo sapiens), Q9GZU1; activity change, negative = inhibition, % (concentration not given with the values); in the data active means activity change below about -50%; inconclusive means about -30% to -50%; inactive means above about -30%;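 further: stimulus is agonist 54-4 at its EC80 concentration; on the % scale 0 is the no-effect control and ±100 the full control effect; the text of the record puts the active cut at -80%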
#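 Calcium fluorescence in TRPML1-DL cells induced overnight with Tet: a 110 s read after compound pin addition, then a 110 s antagonist read after challenge with 54-4 at 4 uM final (EC80).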
# PINK1 expr mod: A Quantitative High throughput Screen to Identify Chemical Modulators of PINK1 Expression. PINK1 immunofluorescence, high-content cytometry, 24 h. Potency, µM (series often up to 76.6 µM), for the others: at the highest dose activation (PINK1 increase), actives largely listed as activators. 410,000 compounds, 0.2% hits; active = well fitted activation curve with a large enough effect; inconclusive = small, poorly fitted or top-dose-only effect; inactive = flat fitted curve, though single readings scatter; cell line not stated here;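 further: potency means the concentration at half of the fitted maximal effect; % of control where 0% means no effect; nearly all actives have a fitted effect of over 65% in size; a mitochondrial uncoupler was the plate control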
#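 Stable cell line, 250 cells/well, 12 h attachment; compounds pinned at 5 concentrations, 24 h; CCCP control. Fixed with nuclear dye, primary antibodies 12 h at 10 degrees C, secondary plus cell stain; laser-scanning cytometer read.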
# ClpP mod: qHTS Assay for Activators of ClpP. purified B. subtilis ClpP, FRET peptide cleavage, 20 min. Potency, µM (highest dose often 57.5 µM), for the others: top-dose activity change, negative = active. 340,000 compounds, 1.9% hits. AID 651965, 2013; active = well fitted falling curve with a large enough effect; inconclusive = small, poorly fitted or top-dose-only effect; inactive = no such curve, though single readings can be large or run the other way; further: potency means the concentration at half of the fitted maximal effect; the source files actives as falling curves though it sought activators and does not explain the sign; nearly all actives have a fitted effect of over 65% in size; many hits overshoot -100%
# Target sequence (P80244 whole entry, looked up): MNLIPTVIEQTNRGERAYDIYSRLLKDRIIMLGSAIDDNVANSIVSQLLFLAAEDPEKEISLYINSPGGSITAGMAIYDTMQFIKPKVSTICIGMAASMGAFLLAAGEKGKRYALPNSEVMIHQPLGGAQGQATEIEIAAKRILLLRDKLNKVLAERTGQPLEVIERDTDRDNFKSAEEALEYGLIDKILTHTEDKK
#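 FRET quenching reversal measured ClpP activation: 10 microg/mL B. subtilis ClpP at pH 8 with the FRET-FV decapeptide, read at 430 nm after 320 nm excitation. The 20-min minus 0-min signal was scaled between DMSO/no-enzyme wells and ADEP (5.8 microM final).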
# The depositor's hits bear a star; ? = inconclusive; . = not tested or not shown; & = joins results of further samples; [ ] = dose if it differs, or a comment.
SMILES,TRPML1 agonist,Sfp inh,Menin-MLL FL inh,TRPV1 PAM,TRPML1 blocker,PINK1 expr mod,ClpP mod
CCN(CC)CC#CCC(O)(c1ccccc1)C1CCCCC1 (configuration not stated),0.8,14.3%,0.1,-13.0,19.8,6.0%,.
N#Cc1c[nH]n2c(NC3CCCC3)c(-c3ccc(Br)cc3)nc12,-1.2,.,.,.,2.7,1.1%,-6.3%
N#CC(Nc1ccccc1)c1ccccc1OCc1ccccc1 (configuration not stated),0.3,0.2%,1.0,-1.2,9.9,12.5%,-4.0%
CCN(CC(=O)Nc1ccc2c(c1)OCCO2)C(=O)CN1C(=O)NC(C)(c2ccc(C)cc2)C1=O (configuration not stated),-0.5,.,.,-5.7,-1.7,1.8%,-3.6%
Cc1nc(NC(=O)c2ccccc2[N+](=O)[O-])sc1C(=O)N(C)C,-0.5,-18.2%,1.8,5.9,16.9,-0.3%,1.2%
CC(C)C(c1nnnn1Cc1ccc2c(c1)OCO2)N1CCN(C)CC1 (configuration not stated),0.1,10.4%,0.0,-6.4,4.3,0.7%,0.6%
O=c1[nH]c(Nc2ccc3c(c2)OCCO3)nnc1Cc1ccccc1,-0.6,-5.5%,-7.7,11.4,-7.6,2.0%,.
Fc1ccc(-[n+]2nc(Nc3ccccc3)sc2-c2c(Cl)cccc2Cl)cc1,0.1,?,-2.1,-4.9,12.3,?,0.2%
CCc1ccccc1NC(=O)c1cc(-c2ccc(Cl)s2)nc2ccccc12,2.6,.,.,.,27.9,2.1%,-24.8%
O=C(C1=C[C@H](c2ccc3c(c2)OCO3)C[C@H](OCc2ccc(CO)cc2)O1)N1CCOCC1,-0.4,8.0%,-0.2,22.4,8.7,-0.5%,-2.3%
CCCOC(=O)C1=C(C)NC2=C(C(=O)CC(C)(C)C2)C1c1cccnc1 (configuration not stated),1.4,12.3%,3.8,-13.5,20.3,2.1%,.
Cc1ccc(NC(=O)C(Cc2ccccc2)NS(=O)(=O)c2ccc3c(c2)c(=O)n(C)c(=O)n3C)c(C)c1 (configuration not stated),-0.6,.,.,.,-11.8,0.7%,-2.0%
CCOP(=O)(OCC)C(C#N)=C1SCN(c2ccccc2)CS1,-0.1,.,.,.,-25.5,1.0%,0.3%
CCN(CC)C(=S)SCC(=O)Nc1ccc(S(N)(=O)=O)cc1,0.1,5.0%,-2.9,3.6,-10.8,1.5%,-1.5%
C#CCNC(=O)C1=C[C@@H](C2CC2)C[C@@H](OCc2ccc(CO)cc2)O1,-0.5,19.4%,-0.9,4.3,0.5,-0.5%,-4.8%
CC(NC(=O)c1ccco1)c1ccc(-n2ccnc2)cc1 (configuration not stated),1.7,.,.,2.3,-11.3,-1.0%,-3.9%
Cc1ccc(C(=O)C(C)OC(=O)Cc2n[nH]c(=O)c3ccccc23)cc1 (configuration not stated),-0.6,.,.,-4.3,-17.6,?,1.4%
O=C(OC1CCCCC1)c1cc2ccccc2oc1=O,1.4,6.5%,0.0,-3.9,31.5,-0.5%,.
CCN(CC)c1ccc(NC(=O)CCc2c(C)nc3ncnn3c2C)c(C)c1,-1.6,.,.,.,-18.8,0.6%,-4.5%
CN1C(=O)C(C)(C)c2cc(S(=O)(=O)N3CCCC3C(=O)NCc3ccccc3Cl)ccc21 (configuration not stated),0.5,10.7%,-0.9,16.1,24.5,0.9%,0.2%
Cc1ccc(C2CC(=O)c3cnc(N4CC(C)CC(C)C4)nc3C2)cc1 (configuration not stated),.,16.6%,0.3,-2.1,.,.,.
O=C(O)CSCC(=O)N1CCN(c2ccnc3cc(Cl)ccc23)CC1,.,0.7%,0.2,?,.,0.8%,-0.5%
COc1cccc(C(C(=O)NC(C)(C)C)N(C(=O)CCC(=O)Nc2cc(C)on2)C(C)C)c1OC (configuration not stated),-0.6,-0.1%,-1.9,-0.6,1.6,-0.8%,-2.0%
CCC(C(=O)O/N=C(\N)c1cccc(C)c1)c1ccccc1 (configuration not stated),2.1,-18.5%,2.9,-18.6,-21.3,8.9%,-1.6%
CC1CN(C(=O)COC(=O)c2ccc(N)c([N+](=O)[O-])c2)CC(C)O1 (configuration not stated),0.0,-2.4%,-3.3,7.4,-3.8,-0.7%,-2.0%
Cc1nnc(NC(=O)CSc2ccccc2N)s1,-0.5,-13.2%,2.5,12.8,1.9,0.1%,-0.5%
O=C(O)c1ccc(Cn2cnc3cccnc32)cc1,1.6&0.5,-15.4%,?,-4.0,-1.8&-6.5,1.3%&3.4%,-7.7%&-8.6%
O=C(Nc1ccc(Cl)c(S(=O)(=O)N2CCOCC2)c1)c1cc2ccccc2oc1=O,1.1,.,.,.,7.8,3.7%,0.2%
COc1ccc(N2CC(C(=O)NCCS(=O)(=O)N3CCN(c4ccccc4)CC3)CC2=O)cc1 (configuration not stated),-0.5&0.5,23.8%,-0.3,2.9,8.1&-17.8,-1.3%&1.4%,-1.0%&0.1%
Cn1c(=O)c2c(nc(Cl)n2CC(=O)NC2(C#N)CCCCC2)n(C)c1=O,0.3,.,.,3.3,-8.9,1.8%,28.2µM*

# 4 entries out of the list above, sorted by their value in TRPML1 blocker, smallest number first.
compound | Sfp inh | Menin-MLL FL inh | TRPML1 blocker | PINK1 expr mod
CCN(CC)c1ccc(NC(=O)CCc2c(C)nc3ncnn3c2C)c(C)c1 | . | . | -18.8 | 0.6%
CC(NC(=O)c1ccco1)c1ccc(-n2ccnc2)cc1 (configuration not stated) | . | . | -11.3 | -1.0%
Cc1nnc(NC(=O)CSc2ccccc2N)s1 | -13.2% | 2.5 | 1.9 | 0.1%
CCN(CC)CC#CCC(O)(c1ccccc1)C1CCCCC1 (configuration not stated) | 14.3% | 0.1 | 19.8 | 6.0%

# Next entries
SMILES,TRPML1 agonist,Sfp inh,Menin-MLL FL inh,TRPV1 PAM,TRPML1 blocker,PINK1 expr mod,ClpP mod
O=C1[C@H]2[C@@H](c3ccc(Cl)cc3)N3C(=O)N(c4cccc(F)c4)C(=O)[C@@]3(Cc3ccccc3)[C@H]2C(=O)N1C1CCCCC1,1.3,.,.,16.9,11.4,0.6%,-0.4%
Cc1ccc(S(=O)(=O)Nc2ccccc2F)cc1C(=O)NCCCN1CCCC1=O,-0.5,7.2%,4.0,-7.0,61.6,-3.2%[38.3 µM],-3.3%
C/C(=N/NC(=O)c1nnn(-c2nonc2N)c1-c1ccccc1)c1ccncc1,0.4,8.5%,-2.6,16.0,14.0,6.4%,.
COc1ccc(S(=O)(=O)Nc2cccc(C(C)=O)c2)cc1Br,0.4,-4.1%,0.0,13.6,11.7,4.8%,.
COc1ccc(C)cc1S(=O)(=O)N(CC(=O)Nc1cccc([N+](=O)[O-])c1)c1ccc(C)c(C)c1,0.6,-0.3%,2.4,3.3,-13.9,2.0%,-1.1%
CCCCCN1CC(=O)N2C(C)c3[nH]c4ccccc4c3C[C@H]2C1=O (some centres not stated),-0.6,9.3%,0.3,13.5,27.0,1.3%,-1.0%
O=C(N/N=C/c1ccc2c(c1)OCO2)c1ccc(NC(=O)c2ccccc2Cl)cc1,0.2,-2.8%,-5.4,-11.4,7.8,5.3%,-2.3%
O=C(c1ccco1)N1CCCC(N2CCN(c3cccc(C(F)(F)F)c3)CC2)C1 (configuration not stated),2.7,10.6%,.,15.5,2.5,0.3%,0.0%
Cc1ccc([C@@H]2[C@@H]3C(=O)N(c4ccccc4)C(=O)[C@@H]3[C@]3(C)C(=O)N(CC4CC4)CC(=O)N23)o1,0.1,-7.0%,-3.7,-13.5,0.9,0.0%,-9.3%
CCN(CC)CCCn1c2c(c(SCC(=O)Nc3ccc(C)c(F)c3)nc1=O)CCC2,-1.1,.,.,-8.3,-5.9,0.4%,0.3%
NS(=O)(=O)c1ccc(N=C2C(=O)Nc3ccccc32)cc1,-1.0,7.3%,0.0,8.7,-1.6,0.0%,0.6%
CC(=O)Nc1ccc(NC(=O)C(C)Oc2ccc(Cl)cc2Cl)cc1 (configuration not stated),0.4,10.1%,-4.7,29.5,1.8,2.6%,-0.5%
COc1ccccc1C/C(N)=N/OC(=O)/C=C/c1ccccc1,0.7,17.5%,1.5,-5.3,-10.9,-1.7%,.
Cc1cc(C)c(C#N)c(SCC(=O)c2cccs2)n1,2.3,11.8%,5.8,?,-11.4,11.0%,-0.5%
COc1ccc(CCNC(=O)C(=O)NCC(c2ccco2)S(=O)(=O)c2cccs2)cc1OC (configuration not stated),0.2,.,.,.,33.3,0.4%,0.6%
c1ccc(CCNc2nc(-c3ccccn3)cs2)cc1,4.1,20µM*,-1.7,-16.6,-3.5,2.5%,-1.6%
Cc1cc2oc(C(=O)Nc3c(C)n(C)n(-c4ccccc4)c3=O)c(C)c2cc1C,2.6,7.3%,-1.1,1.1,-2.0,5.6%,3.5%
O=C(CC1Sc2ccccc2NC1=O)Nc1ccccc1[N+](=O)[O-] (configuration not stated),-0.2,8.8%,1.6,3.8,21.4,1.2%,-2.0%
COc1ccc(C2C(C(=O)N3CCN(c4ccc(OC)cc4)CC3)c3ccccc3C(=O)N2C)cc1 (configuration not stated),4.3,8.7%,-7.0,1.8,8.2,3.9%,5.6%
Cc1ccc(-c2nnc(SCC(=O)NCCN3C(=O)CSC3=O)n2C)cc1,0.7,.,.,6.6,35.5,-0.7%,-3.6%
O=C(Nc1ccc(F)c(Cl)c1)C1Cc2c(-c3cccc(F)c3)ccnc2O1 (configuration not stated),-0.1,.,.,.,.,?,-2.7%
CCN(CC)c1ccc2cc(C(=O)c3cccs3)c(=O)oc2c1,84.3*,.,.,.,.,3.9%,1.6%
C/C(=N\NC(=O)c1ccc2c(c1)OCO2)c1ccc(NC(=O)CCCC(=O)O)cc1,-0.9,6.0%,-1.0,-24.9,2.0,2.0%,-4.5%
CCCNC(=S)Nc1ccc(Br)cc1,0.5,10.0%,-0.9,-3.7,2.0,3.9%,39.7%

# Screens (PubChem BioAssay)
